A1 inh: inhibitors of the anti-apoptotic protein A1, read as caspase activation; MEF A1-2A-BIM cells, Caspase-Glo 3/7 luminescence, 3 h; percent of clofoctol response, vehicle zero; caspase activation, % (test concentration not listed); hit rate 0.066% among 330,000; AID 2462;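 active = over half of replicate activation scores above 10%, or exactly half above 10 with the replicate mean above 10; inconclusive = replicate mean below 10 yet half the replicates above 10; inactive = over half of replicates below 10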;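 also: wells of about 30 µL received 50 nL stock; many hits fall short of the cut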
RanGTP-Imp inh: inhibitors of RanGTP-importin-beta interaction, primary screen, biochemical, FRET, CFP-Ran, YFP-importin-beta, homogeneous; cell-free CFP-Ran/YFP-importin-beta FRET ratio; inhibition, % (test concentration not listed); hit rate 1.1% among 300,000; AID 2216;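 active = most replicates above 15%; inconclusive = exactly half above 15%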;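 also: 0% = DMSO wells and 100% = Ran loaded with GDP instead of GTP; wells of about 40 µL received 100 nL stock; the first replicate is given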
Calb FLC: C. albicans growth modulation with fluconazole; C. albicans CaCi-2 (fluconazole-resistant clinical isolate) + fluconazole, Alamar Blue growth, 48 h; growth inhibition, % (no concentration beside the values); hit rate 0.57% among 300,000;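 active = most replicates above 75%; inconclusive = exactly half above 75%; inactive = most below 75%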;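 also: all wells also contain fluconazole at 8 µg/ml as a sub-toxic cotreatment; 0% = median of DMSO wells and 100% = median of geldanamycin control wells; wells of about 8 µL received 7.5 nL stock; the first replicate is given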
Beta cell apopt: blocks beta cell apoptosis; hit rate 0.8% among 300,000; protection from apoptosis, % (test concentration not listed); AID 435005; INS-1E cytokine-induced death, ATP luminescence, 48 h; percent of positive-control rescue, neutral wells zero;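 active = all replicates at 75% or more, or half of them and the mean; inconclusive = half reach 75% but not the mean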;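 also: 0% = cytokine-treated negative control wells and 100% = positive control rescue; higher means more ATP so stronger rescue from cytokine killing; wells of about 40 µL received 100 nL stock; the first replicate is given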
T cruzi repl: blocks replication of Trypanosoma cruzi | AID 1885 | hit rate 1.4% among 300,000 | inhibition, % (no concentration beside the values) | T. cruzi beta-gal in NIH3T3, luminescence, 90 h;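 active = mean inhibition across valid replicates above about 55%, limit read from the data; inconclusive = mean below that limit but half or more replicates reach it; inactive = mean below it, under half of replicates reach it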;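 also: signal also drops with host cell toxicity which is not excluded here; 0% = plate median of DMSO wells and 100% = zero luminescence signal; higher percent means less beta-gal luminescence so fewer parasites; stock transfer was 50 nL into about 50 µL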
Vif A3G: inhibitors of Vif binding to APOBEC3G peptide, primary screen, biochemical, TR-FRET, GST-Vif 1-94, biotin-A3G peptide, dose response retest (AID 1117319); TR-FRET GST-Vif / biotin-A3G peptide binding; higher % means a stronger effect; test concentration not given here; strong numbers were not always called active; one-dose inhibition, %; IC50 in µM for titrated hits; hit rate 0.57% among 260,000;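 active = above the screen mean plus three standard deviations and confirmed in dose response; inconclusive = results disagree or hit not tested in dose response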;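 also: Vif residues 1-94 fused to GST binding biotinylated APOBEC3G peptide 110-148; 0% = full assay without inhibitor and 100% = GST in place of GST-Vif; retest series ran down from 100 µM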
AF4-AF9 inh: MLL-AF4/AF9 protein interaction inhibition; hit rate 0.47% among 350,000; AlphaScreen, biotin-AF4 peptide binding to FLAG-AF9; AID 651704; inhibition, % at 10 µM; P42568;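 active = every replicate reaching a set inhibition limit, whatever the replicate mean, cut at about 25% in these data; inconclusive = mean inhibition reaches that limit but some replicates miss it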;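 also: 0% = plate neutral control median and 100% = total signal loss; the record names both 10 and 1 µM as test concentration; the first replicate is given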
Target sequence (P42568 whole entry, looked up): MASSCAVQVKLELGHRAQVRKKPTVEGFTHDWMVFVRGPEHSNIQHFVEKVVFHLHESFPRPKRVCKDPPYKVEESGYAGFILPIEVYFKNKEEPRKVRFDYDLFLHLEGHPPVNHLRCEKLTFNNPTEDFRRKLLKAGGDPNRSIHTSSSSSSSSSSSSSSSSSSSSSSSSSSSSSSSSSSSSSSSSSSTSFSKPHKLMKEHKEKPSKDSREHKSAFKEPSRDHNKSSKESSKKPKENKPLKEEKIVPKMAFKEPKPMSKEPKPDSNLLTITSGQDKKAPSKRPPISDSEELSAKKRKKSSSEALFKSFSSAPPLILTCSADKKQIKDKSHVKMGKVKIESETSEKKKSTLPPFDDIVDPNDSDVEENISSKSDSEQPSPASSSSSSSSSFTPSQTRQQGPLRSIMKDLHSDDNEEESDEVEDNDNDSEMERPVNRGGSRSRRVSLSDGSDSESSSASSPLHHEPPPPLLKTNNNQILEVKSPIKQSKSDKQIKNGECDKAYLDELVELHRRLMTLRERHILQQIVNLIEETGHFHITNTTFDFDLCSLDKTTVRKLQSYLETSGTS
Ecoli rRNA inh: selective bacterial rRNA inhibition in E. coli | E. coli WT GFP vs humanized-ribosome RFP mutants, fluorescence, 24 h; stronger effect = lower value; DMSO median 0, no signal -100 | GFP signal change (wild-type ribosome), % (test concentration not listed) | hit rate 1.6% among 350,000;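 active = significant combined selectivity score with lowered wild-type GFP, culture density cut under 30%, mutant RFP and density less affected; inactive = any of these conditions unmet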; also: one replicate is shown; some compounds called inactive have numbers as strong as hits
Ecoli rRNA inh OD600: second read-out of Ecoli rRNA inh, no call of its own (marks repeat the call); OD600 change, %; measured here: OD600 growth;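 optical density of the mix in the first replicate; 0 = DMSO median and -100 = no signal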
Ecoli rRNA inh RFP: recorded beside Ecoli rRNA inh, whose call it bears; RFP signal change, %; measured here: RFP humanized mutant strains;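 first replicate; 0 = DMSO median and -100 = no signal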
An asterisk follows results filed as active; ? = inconclusive; . = no result given; & = joins results of further samples.

SMILES | A1 inh | RanGTP-Imp inh | Calb FLC | Beta cell apopt | T cruzi repl | Vif A3G | AF4-AF9 inh | Ecoli rRNA inh | Ecoli rRNA inh OD600 | Ecoli rRNA inh RFP
O=C/C(=C\Nc1ccccn1)c1nc2cc(Cl)ccc2o1 | 0.3 | 13.7 | -4.9 | 5.2 | -21.6 | -8.4% | . | . | . | .
Cc1cc(C)n(-c2ccc(C(=O)OC(C)C)cc2)n1 | -0.2 | 7.2 | 2.4 | 2.3 | 0.4 | 0.7% | 4.4 | 6.1 | 2.8 | 1.0
CNS(=O)(=O)c1ccc2ccccc2c1 | 2.1 | -3.6 | 5.3 | -15.0 | -8.4 | . | 7.2 | 2.9 | -2.1 | -5.2
CCOc1ccccc1N1CCN(C(=S)NCc2ccccc2)CC1 | -0.2 | -4.1 | -13.6 | 3.8 | -5.2 | . | -21.3 | -22.4* | -15.6* | -3.3*
CCC(=O)Nc1nc2ccccc2n1Cc1ccc(Cl)cc1 | -0.5 | -1.2 | -0.9 | 17.4 | 62.1* | . | 2.6 | -33.1 | -38.0 | 6.1
CCOC(=O)c1cc(-c2ccc(Cl)cc2)nc2onc(C)c12 | -0.3 | 0.4 | -15.1 | -0.6 | -13.9 | 21.4% | . | . | . | .
O=C(Nc1ccccc1-c1nc2ccccc2s1)c1cccnc1 | -1.0 | 1.4 | 18.6 | 1.3 | -3.1 | . | -2.0 | . | . | .
CSc1cccc(N2CC(C(=O)N3CCN(S(=O)(=O)c4ccccc4Cl)CC3)CC2=O)c1 (stereo unspecified) | -0.2 | . | . | 3.5 | . | . | 4.6 | -0.2 | -7.3 | 8.4
COC(=O)c1sccc1-n1cccc1C(=O)C(=O)N1CCOCC1 | -0.4 | 2.4 | 5.8 | -1.6 | -5.1 | . | -1.3 | 17.9 | 17.6 | -0.1
Cc1nnc(NC(=O)CSc2nccn2-c2cccc(C)c2C)s1 | -0.5 | -6.5 | -6.2 | 12.2 | -48.6 | -5.9% | -2.9 | -6.8 | -3.5 | -1.5
Cc1c(NC(=O)CSc2ccccn2)c(=O)n(-c2ccccc2)n1C | -0.3 | 2.5 | 4.8 | 0.3 | -13.0 | 2.5% | . | . | . | .
COc1ccc(N(CC(=O)NCCSCc2ccco2)S(=O)(=O)c2ccccc2)cc1OC | 1.1 | ? | -0.4 | -6.4 | 25.3 | -6.7% | 0.8 | -2.4 | 1.3 | 0.6
Cc1cc(C(F)(F)F)n(-c2nc(C(=O)O)cs2)n1 | 2.0 | 1.0 | 2.1 | 1.8 | 1.8 | . | -1.1 | 10.3 | 12.5 | -2.4
Cc1cccc2sc(NC(=O)CN3C(=O)c4ccccc4C3=O)nc12 | -0.2 | 0.0 | 8.8 | . | -11.8 | -2.4% | -48.5 | 0.0 | 25.8 | -0.9
CCOC(=O)c1cnc2c(cnn2C)c1NCc1ccc(OC)cc1 | 0.9 | -3.4 | 13.6 | -8.0 | 6.3 | . | -1.4 | -19.0* | 15.2* | 6.6*
CCO[C@@H]1OC(C(=O)NC2CC2)=C[C@H](C(C)(C)C)[C@H]1CCCO | 0.2 | -5.5 | -3.7 | 1.0 | -7.2 | ? | -2.0 | 13.9 | 6.9 | -8.8
CCn1c(=O)c(C(=O)NCc2ccc(Cl)cc2)c(O)c2ccccc21 | 0.6 | -0.4 | -5.7 | . | -5.4 | . | -0.2 | 3.4 | 9.7 | 1.4
COc1ccc(CCNC(=O)C2CCC(CNS(=O)(=O)c3ccc(F)cc3)CC2)cc1OC (stereo unspecified) | -0.5 | 8.6 | 7.7 | 0.0 | -7.2 | -5.4% | 0.5 | 5.6 | 11.9 | 2.6
O=c1c2ccccc2nc(SCc2cc([N+](=O)[O-])cc3c2OCOC3)n1-c1ccccc1 | 2.0 | 0.3 | 11.9 | . | -12.0 | ? | . | . | . | .
Cc1ccccc1OCC(=O)NNC(=O)Cn1[nH]c(=O)c2ccccc2c1=O | -0.4 | . | . | -10.0 | . | -6.4% | -3.0 | -5.3 | 4.4 | 11.0
CC(c1nccs1)N(C)C(=O)c1ccc(OC2CCN(CCc3ccccc3)CC2)cc1 (stereo unspecified) | 0.9 | 2.2 | 2.8 | -6.5 | 0.7 | . | 2.5 | -1.8 | -5.1 | 1.1
O=C1N/C(=C/c2cccs2)C(=O)N1Cc1ccc(F)cc1 | 1.3 | -3.3 | ? | . | -20.7 | -2.9% | -0.2 | -1.3 | -1.1 | -3.0
CCn1nccc1C(=O)Nc1ccc(C(=O)OC(C)C)cc1 | -9.1 | 2.0 | -1.1 | 2.5 | 10.9 | . | -11.5 | -5.1 | 2.3 | 2.8
COCCNC(=O)[C@H](C)[C@H]1C[C@]1(C)[C@H](NC(=O)OCc1ccccc1)c1ccccc1 | 1.3 | 0.1 | 6.6 | . | -4.0 | 12.2% | -0.3 | -7.8 | -17.8 | 3.0
Cc1ccccc1NC(=O)c1ccc(Cn2cc([N+](=O)[O-])cn2)o1 | 0.3 | 3.2 | -9.0 | 5.8 | -31.7 | 18.8% | 1.7 | 6.8 | 1.3 | -2.3

Continuation:
SMILES | A1 inh | RanGTP-Imp inh | Calb FLC | Beta cell apopt | T cruzi repl | Vif A3G | AF4-AF9 inh | Ecoli rRNA inh | Ecoli rRNA inh OD600 | Ecoli rRNA inh RFP
CC(C)(C)c1cc(NCCCn2ccnc2)n2ncc(-c3ccccc3)c2n1 | 0.0 | 4.2 | 35.6 | 113.5* | 43.0 | -9.5% | ? | -49.5* | -30.7* | -14.2*
CCCCOc1ccccc1NC(=O)Cn1c(-c2nonc2N)nc2ccccc21 | 0.9 | 1.0 | -1.0 | 58.6 | -44.7 | 5.7% | . | . | . | .
CCOc1ccc(NC(=O)[C@@H](NC(=O)c2ccccc2)[C@@H](C)CC)cc1 | -0.8 | 0.8 | -0.4 | 1.3 | 2.9 | -0.2% | . | . | . | .
Cc1ccc(NC(=O)C2CC(=O)NC(N3CCc4ccccc43)=N2)cc1 (stereo unspecified) | -0.4 | -2.8 | 4.8 | 1.8 | 1.4 | -2.3% | . | . | . | .
COc1ccc(NC2=C(Cl)C(=O)N(CCc3ccccc3)C2=O)c(OC)c1 | 1.4 | -0.7 | -5.1 | 6.1 | -2.5 | 16.1% | . | . | . | .
Nc1nc2n(n1)C(=O)CC(c1ccc(Cl)cc1)N2 (stereo unspecified) | -0.2 | -0.2 | -17.9 | -3.8 | -10.8 | . | -2.8 | 12.9 | 10.9 | 1.4
CN(C)S(=O)(=O)c1cccc(NC(=O)COC(=O)CCc2nc3ccccc3s2)c1 | 0.5 | 1.9 | -5.2 | -0.1 | -6.7 | 1.6% | . | . | . | .
CCc1cccc(NC(=O)C2CCN(S(=O)(=O)c3ccc4c(c3)NC(=O)CO4)CC2)c1 | 9.7* | -5.2 | -13.7 | 1.8 | 4.3 | -4.3% | 0.0 | -8.5 | -17.6 | 1.1
Cc1cc(C(=O)CSc2nnnn2C)c(C)n1-c1cccc(F)c1 | -3.6 | 8.6 | -7.1 | -2.0 | 22.9 | 11.9% | . | . | . | .
COc1ccc(C2C(=O)N(CCc3ccccc3)CC(=O)N2C2CCCCC2)cc1 (stereo unspecified) | 0.1 | -1.7 | -15.6 | 3.1 | 11.5 | 9.8% | . | . | . | .
COc1ccc(CNC(=O)c2sccc2-c2ccccc2)cc1OC | 0.5 | 3.4 | 8.4 | 5.2 | -2.9 | . | 0.3 | -3.1 | -5.5 | 1.8
O=c1cc(-c2ccccc2)nc2cc(-c3ccc(Br)cc3)[nH]n12 | -5.8 | 1.7 | 10.7 | . | -9.9 | -22.4% | -0.7 | -1.9 | 6.0 | -6.0
O=C(COc1ccc(CO)cc1)Nc1ccc(F)cc1 | 0.7 | 3.6 | -6.1 | -0.8 | -8.6 | -4.3% | . | . | . | .
CC1CC(C)CN(c2ccc(C(=O)OCC(=O)NC3CCCc4ccccc43)cc2[N+](=O)[O-])C1 (stereo unspecified) | 0.1 | 2.2 | -2.4 | -2.5 | 7.1 | -6.7%&1.7% | . | . | . | .
COc1cccc(Cn2c(=O)c3ccccc3n3nc(C)cc23)c1 | -0.7 | 3.1 | 30.8 | -8.4 | 9.7 | . | -2.5 | 2.5 | 4.5 | -1.0
O=C(CCc1nc(-c2ccccc2Cl)no1)NC1CCCCC1 | 0.0 | 26.3 | -14.0 | 5.4 | 9.2 | . | -2.5 | 2.6 | 2.6 | -1.4
CC(=O)NC(=S)Nc1ccccc1F | -0.2 | 3.9 | -4.6 | -4.3 | 7.2 | 22.5% | 5.6 | 12.5 | 6.6 | -1.1
CCN1C(=O)[C@H]2[C@@H](c3ccc(C)cc3)N3C(=O)N(c4cccc(Cl)c4)C(=O)[C@@]3(Cc3ccccc3)[C@H]2C1=O | -0.3 | 1.6 | 16.1 | -4.6 | -14.7 | . | 2.7 | 4.2 | 5.8 | -1.8
Cc1ccsc1C(=O)OCC(=O)N(C)C1CCCCC1 | -8.8 | . | . | -0.8 | . | . | 0.6 | 0.6 | -2.9 | -2.5
O=C(c1ccc(S(=O)(=O)Nc2cccc(C(F)(F)F)c2)cc1)N1CCC1 | 0.7 | -0.2 | 5.4 | -2.5 | -1.5 | . | -1.8 | 9.9 | -2.5 | 1.1
O=C(CN1C(=O)NC2(CCCCC2)C1=O)Nc1cccc(S(=O)(=O)N2CCCC2)c1 | 0.4 | . | . | 0.2 | . | . | -4.7 | -5.5 | 10.2 | -0.4
CC(=O)NS(=O)(=O)c1ccc(NC(=O)/C=C/c2ccc(C)o2)cc1 | 0.1 | 1.4 | 29.6 | -2.2 | -4.0 | 18.4% | -11.5 | 23.2 | 25.9 | 6.7
Cc1c(C(=O)N(C)C)sc2nc(-c3ccccn3)[nH]c(=O)c12 | -0.4 | -2.1 | -5.1 | 0.8 | -16.4 | 11.9% | . | . | . | .
CC(=O)N1CCC(C(=O)N2CCN(S(=O)(=O)c3ccc(Cl)s3)CC2)CC1 | 0.0 | -1.2 | -3.4 | -5.7 | 1.6 | . | -0.3 | 3.3 | 18.4 | 2.5
NC(=O)c1nsc(C(=O)N(c2ccc3c(c2)OCCO3)C(C(=O)NCC2CCCO2)c2ccc(F)cc2)c1N (stereo unspecified) | -0.3 | -0.7 | 27.3 | -6.3 | -7.4 | . | 1.2 | -0.3 | 2.4 | -3.2

Part of the list above in a different format:
molecule	A1 inh	RanGTP-Imp inh	Calb FLC	Beta cell apopt	T cruzi repl	Vif A3G	AF4-AF9 inh	Ecoli rRNA inh	Ecoli rRNA inh OD600	Ecoli rRNA inh RFP
COc1ccc(NC2=C(Cl)C(=O)N(CCc3ccccc3)C2=O)c(OC)c1	1.4	-0.7	-5.1	6.1	-2.5	16.1%	.	.	.	.
Nc1nc2n(n1)C(=O)CC(c1ccc(Cl)cc1)N2 (stereo unspecified)	-0.2	-0.2	-17.9	-3.8	-10.8	.	-2.8	12.9	10.9	1.4

Assay outcomes (PubChem BioAssay)

A portion of the library, so the mix of outcomes need not match the whole.
